# Screens deposited in PubChem by Broad Institute.
# Tgondii IFNg: blocks Toxoplasma gondii growth in the presence of IFN-gamma. Toxoplasma gondii growth in IFN-gamma-treated host cells; hits give low values; reference of the scale not given here. hit rate 3.8% among 69,000. AID 1259416. activity change, negative = inhibition, %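 (about 20 µM by stock and volumes)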;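 active means below -70%; inconclusive means fit judged invalid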;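 further: host cells are HeLa cells infected with Toxoplasma gondii; parasite growth read as luciferase light; one replicate is shown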
# Starred values were filed as active, the others as inactive; i = inactive; ? = inconclusive; ! = repeats disagree.
# The first 7 compounds, to show the layout:
SMILES,Tgondii IFNg
O=c1n(-c2ccc(F)cc2)nc2n1CCCN2,53
Cc1cc(C)c2[nH]c(=O)c(CN3CCOC4(CNCCOC4)C3)cc2c1 (stereo not given),-1
Cc1cnn(Cc2nc(-c3ccc(NC(=O)c4cccs4)cc3)oc2C)c1,-76*
C[C@H](CO)N1C[C@H](C)[C@H](CN(C)C(=O)Nc2ccc(-c3cccs3)cc2)OCc2cnnn2CCCC1=O,323
O=C(c1ccccc1)C1CCN(Cc2cc3n(n2)CCCNC3)CC1,-3
CN(C)CC(=O)N1CC[C@@H]2C[C@H](c3ccncn3)O[C@H]2C1,2
CCc1nc(-c2cc(C(=O)Cc3ccccn3)c3ccccn23)cs1,-1

# Main list, from the first entry:
SMILES,Tgondii IFNg
O=c1n(-c2ccc(F)cc2)nc2n1CCCN2,53
Cc1cc(C)c2[nH]c(=O)c(CN3CCOC4(CNCCOC4)C3)cc2c1 (stereo not given),-1
Cc1cnn(Cc2nc(-c3ccc(NC(=O)c4cccs4)cc3)oc2C)c1,-76*
C[C@H](CO)N1C[C@H](C)[C@H](CN(C)C(=O)Nc2ccc(-c3cccs3)cc2)OCc2cnnn2CCCC1=O,323
O=C(c1ccccc1)C1CCN(Cc2cc3n(n2)CCCNC3)CC1,-3
CN(C)CC(=O)N1CC[C@@H]2C[C@H](c3ccncn3)O[C@H]2C1,2
CCc1nc(-c2cc(C(=O)Cc3ccccn3)c3ccccn23)cs1,-1
Cc1cc(C)nc(/N=C2\NC(=O)CC(C(=O)O)N2c2ccc(Cl)cc2)n1 (stereo not given),-7
O=C(c1ccccc1C1CCNC1)N1CCC(O)(Cc2ccccc2)CC1 (stereo not given),-12
CCCC(=O)Nc1ccc2c(c1)OC[C@H](C)N(CC1CCOCC1)C[C@@H](C)[C@H](OC)CN(C)C2=O,30
Cc1ccc(NC2(C(=O)NC(C)c3nncn3C)CCCCC2)cc1C (stereo not given),24
O=C(c1ccccc1)N1CCCC2(C1)Nc1cccnc1NC2=NC1CCCC1 (stereo not given),10
Cn1nc(C(F)(F)F)c2cc(C(=O)N3CC[C@H](O)[C@@H](O)C3)sc21,-10
OC(c1ccccn1)c1c[nH]c2ccccc12 (stereo not given),12
O=C(Nc1ccc(CN2CCCCCC2)cc1)c1ccc(-c2nn[nH]n2)cc1,0
CCCCCCNC(=O)Cc1ccc(Br)cc1,-3
COC1(c2ccccc2)CCN(Cc2cc3n(n2)CCCNC3)CC1,-3
CC(C)Cc1cc(C(=O)NC(C)c2cn3ccsc3n2)n(C)n1 (stereo not given),-8
CCOC(=O)c1cc(C)n(-c2c(Cl)cc(Cl)cc2Cl)n1,30
CN1C(=O)c2cc(NC(=O)c3cccc(F)c3)ccc2OC[C@@H]2O[C@H](CC(=O)NCc3ccccc3Cl)CC[C@H]21,-22
CCOC(=O)N1CCN(Cc2ccc3c(c2)CN(C(=O)c2cc(-c4ccccc4)on2)CCO3)CC1,-12
Cc1cccc(C(=O)N2CCC3(CC2)CC(CC(=O)NCC2CC2)c2ccccc2O3)n1 (stereo not given),0
CCOc1ccc(NC(=O)Nc2ccc(-c3nc(-c4ccccc4)co3)cc2)cc1,6
O=c1ccc2cc(S(=O)(=O)NCCN3CCN(c4ccccc4F)CC3)ccc2[nH]1,-19
O=C(C1CCN(S(=O)(=O)c2ccc3[nH]c(=O)ccc3c2)CC1)N1CCOCC1,58
Cc1cc(N2CCOCC2)nc2ccc(NC(=O)c3cc4ccccc4[nH]3)cc12,4
COc1ncc(CN2CCC(c3[nH]ncc3-c3cccc(F)c3)CC2)cn1,-16
C[C@@H]1CN([C@@H](C)CO)C(=O)c2cc(NS(=O)(=O)c3cccs3)ccc2O[C@@H](C)CCCCO[C@@H]1CN(C)C(=O)c1ccncc1,-21
CNC[C@H]1Oc2ccc(NC(=O)CCC(F)(F)F)cc2C(=O)N([C@H](C)CO)C[C@@H]1C,-1
O=C1CCc2cc(S(=O)(=O)NCc3ccccc3)cc3c2N1CCC3,237
COc1ccc(NC(=O)N(C)C[C@@H]2OCCCC[C@@H](C)Oc3ccc(NC(=O)c4ccncc4)cc3C(=O)N([C@H](C)CO)C[C@@H]2C)cc1,i
C=CCc1ccc(OCc2ccc(C(=O)N3CCc4ccccc43)o2)c(OC)c1,19
CC1CN(c2ccc(NC(=S)N3CCSCC3)cc2)CC(C)O1 (stereo not given),34
CCC(CC)C(=O)Nc1c[nH]c(=O)[nH]c1=O,-7
Cn1c(=O)c2c(ncn2CC(=O)O)n(C)c1=O,3
CCCOc1ccc2nc(NC(=O)OC)sc2c1,-41
c1ccc(CNc2ncc(CN3CCCN4CCC[C@H]4C3)cn2)cc1,-21
O=C1NCCOCn2nncc2CC[C@@H]1Cc1ccc(-c2ccccc2)cc1,-21
O=C(O)CCNC(=O)NC12CC3CC(CC(C3)C1)C2,24
COc1cccc(C(=O)N2CCC(C)(C(=O)NCc3ccc(F)cc3F)CC2)c1,-2
Cc1ccc(CN2CC[C@@H]3OC[C@H](C(=O)N4CCCO4)C[C@H]3C2)o1,0
C[C@@H]1CCCCO[C@H](CN(C)C(=O)Cc2ccccc2)[C@@H](C)CN([C@H](C)CO)C(=O)c2cc(NS(C)(=O)=O)ccc2O1,?
CC(O)Cn1ccnc1-c1ccc2cccc(F)c2n1 (stereo not given),-11
Cn1c(=O)c2nc(-c3cccc(I)c3)oc2c2ccccc21,-19
CCCc1cc(C(=O)N2CCCC(c3ncc(C(=O)NCc4ccccc4)c(C)n3)C2)no1 (stereo not given),-57
Cc1nc(-c2ccc(F)cc2)sc1CCNC(=O)c1c(F)cccc1Cl,-5
CC(=O)OCC(=O)c1ccc(Br)cc1,87
COc1ccc(NC(=O)NCC(c2cccnc2)c2cn(C)c3ccccc23)cc1 (stereo not given),i
Cc1cccc(Nc2nc3ccccc3c3nnc(C)n23)c1,7
CO[C@H]1CN(C)C(=O)c2cc(NC(=O)NC3CCCCC3)ccc2OC[C@H](C)N(CC2CCOCC2)C[C@@H]1C,9
# (cont.)
SMILES,Tgondii IFNg
CS(=O)(=O)N1CCO[C@H]2CCN(C(=O)c3cccs3)C[C@H]21,2
COc1cccc(-c2nc(Cn3nnc(C(=O)Nc4cccc(Cl)c4)c3C)c(C)o2)c1OC,-48
Cc1ccc(C(=O)COC(=O)CCCCCC2NC(=O)NC2C)cc1 (stereo not given),-36
c1ccc(Cc2nc(C3CCCN(Cc4ccco4)C3)n[nH]2)cc1 (stereo not given),-4
Cc1c(Cl)c(C(=O)N2CCC(O)(CN(C)C)C2)nn1C (stereo not given),-44
O=C(Nc1cc(F)ccc1F)c1cncc(NS(=O)(=O)c2ccc(Br)cc2)c1,23
CSc1cccc(Nc2nc(-c3ccc(Cl)cc3)nc3ccccc23)c1,-54
CN(C)C1CC2(CCN(C(=O)c3ccno3)CC2)C1,-1
CC(=O)Nc1ccc(O)c(C(=O)N2CCC3(CCOCC3)CC2)c1,-4
O=C(O)c1nc(=O)[nH]c(=O)[nH]1,11
N#CCCN1CCCN(CCC#N)CCN(CCC#N)CCCN(CCC#N)CC1,-45
O=S(=O)(c1cccc(F)c1)N1CCC2(CC1)COCCN(Cc1cccnc1)C2,-2
CNC(=O)[C@@H]1C[C@@H](N)CN1Cc1cc(-c2ccccc2)no1,13
Cc1c(C(=O)N2CCCC3(CC2)CN(C)C(=O)O3)n(C)c2c(C)cccc12 (stereo not given),-3
CCc1nc([C@H]2CN(C)C[C@@H]2C(=O)NCc2ccccc2OC)c(C)[nH]1,-1
CC=Cc1ccc2n(c1=O)C[C@@H]1[C@@H](CO)[C@H](C(=O)Nc3ccc(-c4ccccc4)cc3)[C@H]2N1C(=O)CC (mixture of isomers),-7
CC[C@H]1C/C=C\C[C@H](C(C)C)NC(=O)CCC(=O)N1,-13
COc1ccc(-c2nc(CN(C)Cc3ccccn3)c(C)o2)c(F)c1,-50
Nc1c(-c2ccccn2)nsc1C(=O)N1CCC(N2CCCCC2)CC1,15
COCC(=O)N(C)CCOc1c(C)ccc(C)c1C,-78*
COCC(=O)N1CCC2(CCN2Cc2csc(C)n2)C1 (stereo not given),-34
Cn1nc(C2CCNC2)c2cccnc21 (stereo not given),22
COCC1CN(C(=O)c2ccc(C)o2)Cc2cnn(C)c21 (stereo not given),-8
O=C(Nc1ccccc1)N1CCC2(CN(Cc3ccccc3)C2)C1,-4
CC(C)(C)NC(=S)N/N=C1/CCCc2occc21,-95*
CC(C)[C@@H]1COCc2cn(nn2)CCC[C@H](C)C(=O)N1,-38
COc1cc(NC(=O)c2ccccn2)ccc1Cl,208
CCc1ncc2c(n1)CN(C(=O)Cc1ccccc1OCc1ccccc1)C2,-2
CC(C)c1cc(CN2CCC(c3ccnc(-c4cccc(O)c4)c3)C2)on1 (stereo not given),-59
CCC(C)N(Cc1ccncc1)Cc1ccc2cccc(O)c2n1 (stereo not given),36

# A second format for some results above.
SMILES | Tgondii IFNg
COCC(=O)N1CCC2(CCN2Cc2csc(C)n2)C1 (stereo not given) | -34
Cn1nc(C2CCNC2)c2cccnc21 (stereo not given) | 22
COCC1CN(C(=O)c2ccc(C)o2)Cc2cnn(C)c21 (stereo not given) | -8
O=C(Nc1ccccc1)N1CCC2(CN(Cc3ccccc3)C2)C1 | -4
CC(C)(C)NC(=S)N/N=C1/CCCc2occc21 | -95*

# Remaining list, next part.
SMILES,Tgondii IFNg
COc1ncccc1CN1CCC2(CCN(c3cccnc3)C2=O)C1 (stereo not given),0
O=C(NCc1ccncc1)C1CC12CCN(C(=O)c1ccc(Cl)cc1)C2 (stereo not given),-3
C[C@H]1COCc2cnnn2CC[C@@H](Cc2ccccc2)C(=O)N1,-18
COc1ccc(-c2nc(Cn3nnc(C(=O)Nc4ccc(F)c(F)c4)c3C)c(C)o2)c(OC)c1,0
O=C(Cn1c(=O)cc(C(=O)N2CCCC2)c2ccccc21)N1CCN(c2ccccc2F)CC1,-49
CC(C)c1noc(-c2cc(=O)n(CC(=O)Nc3ccc(Cl)cc3F)c3ccccc23)n1,20
COC(=O)[C@@H](NCC(=O)Nc1ccc(C)cc1C)c1ccccc1,0
CNC(=O)[C@H]1C[C@@H]2OCC[C@@H]2N(CCOCc2ccccc2)C1,-2
Cc1ccc(C)c(-c2coc(-c3ccc(NC(=O)c4sccc4C)cc3)n2)c1,17
O=C1NC(Cc2ccc(F)cc2)(C2CCNCC2)C(=O)N1CCc1cccs1 (stereo not given),-1
Cc1nc(CC(=O)N2CC(C(=O)N3CCN(c4ccccc4)CC3)C2)cs1,-7
CCc1ccccc1NC(=O)N1CCC2(CC1)c1cccn1-c1ccccc1N2CC,30
O=c1sc(-c2ccccc2)nc(O)c1Cc1ccccc1,20
O=C1CN(C(=O)CSc2nc(C3CCCCC3)nc3ccccc23)c2ccccc2N1,-98*
CCOc1ccc(-c2nc(CN3CCN(C(=O)Nc4ccccc4OCC)CC3)c(C)o2)cc1,-29
CC(=O)N1[C@@H](CO)[C@H](c2ccccc2)[C@@H]1CN(CC(C)C)C(=O)c1ccccn1,-13
Cn1ccnc1-c1c(-c2ccccc2)ncn1[C@@H]1C[C@@H]2CC[C@H]1C2,-38
CC(C)(C)c1ccc(C(=O)Nc2cc(C#N)c3sc4ccccc4n3c2=O)cc1,61
CN(C)CC(=O)N1[C@@H]2c3ccc(-c4cccc(F)c4)c(=O)n3C[C@@H]2[C@@H](CO)[C@@H]1C(=O)NC1CCC1,-27
COc1ccc2c3c(n(C)c2c1)[C@@H](CO)N(C(=O)c1ccccn1)CC31CN(C(=O)Cc2ccccc2)C1,97
CCCNC(=O)N1CC2(C1)CN(C(=O)NC1CCCC1)[C@H](CO)c1[nH]c3cc(OC)ccc3c12,-42
O=C(c1cn[nH]n1)N1CCC(c2c(-c3ccccc3)[nH]c3ccccc23)CC1,9
CNC(=O)C1(Cc2ccccc2-c2ccccc2)CCN(C(=O)Cc2nnc(N)s2)C1 (stereo not given),1
O=C(NC1CCCCC1)N1C[C@@H]2N[C@H](C1)C2c1ccc(-c2ccc(F)cc2)cc1 (stereo not given in full),-77*!
CCCn1ccnc1-c1c(-c2ccccc2)ncn1Cc1c(C)noc1C,2
O=C(Cn1c(=O)cc(C(=O)N2CCCCC2)c2ccccc21)Nc1ccc(F)c(Cl)c1,-46
CCN(C[C@@H]1[C@H](c2ccccc2)[C@H](CO)N1C(=O)COC)S(C)(=O)=O,20
CCc1c(C)cc(C(=O)N2CCC3(CCNC(=O)CC3)CC2)c(=O)n1C,2
CC(C)(O)C#Cc1cccc(C(=O)NCC2OCCc3ccccc32)c1 (stereo not given),?
COc1ccc(-c2nc(NCc3cccc(OC)c3)c3ccccc3n2)cc1,-59
CC(C)(C)c1csc(-c2sccc2CS(=O)(=O)c2ccc(Cl)cc2)n1,-34
CC(=O)Nc1c(I)c(C(=O)O)c(I)c(N(C)C(C)=O)c1I,19
COc1nc2ccccc2nc1CCC(=O)NC(C)c1ccccn1 (stereo not given),-2
CC(=O)c1ccc(C(=O)N(CC#Cc2ccccc2)CC(C)C)s1,-2
CN(C)C(=O)NC[C@@H]1CCC[C@]2(CCN(CC3CCOCC3)C2)O1,1
C/C=C/c1ccc([C@@H]2[C@@H](CO)N(C(=O)c3cnccn3)C23CN(C(=O)C2CCC2)C3)cc1,60
CCOc1ccccc1-c1noc(-c2c(O)c3ccccc3n(CC)c2=O)n1,39
COCC(=O)N1CCCN(Cc2ccc(C(C)=O)cc2)CC1,1
CC(=O)c1cn(CC(=O)Nc2cnc3n2CCCC3)c2ccccc12,29
COc1ccc(-c2nnn(C3CCN(C(=O)c4cnsc4)CC3)n2)cc1,-8
O=S(=O)(CS(=O)(=O)c1ccc(Cl)cc1)c1ccc(Cl)cc1,-4
COC(=O)c1ccc(NC(=S)NCC2OCCc3ccccc32)cc1 (stereo not given),4
COc1ccc(NC(=O)N(C)C[C@H]2Oc3ccc(NC(=O)CCN4CCOCC4)cc3C(=O)N([C@H](C)CO)C[C@H]2C)cc1,8

# Some of the compounds tested; rates above refer to the full screens.
